# Screens deposited in PubChem BioAssay by National Center for Advancing Translational Sciences (NCATS).
# gsp antagonist – gsp mutant antagonism. Potency, µM (top dose mostly 76.9 µM), without a hit: top-dose activity change, negative = inhibition, hits mostly inhibitors. 0.4% of 340,000 active. AID 624288. gsp-mutant cells, cAMP HTRF, 30 min; control for the full effect not named in the record; active = falling curve of any shape with a large fitted effect; inconclusive = falling curve, mostly with a smaller effect; inactive = flat or rising curve; cell line not stated here;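 further: intracellular cAMP measured with PDE inhibitor Ro 20-1724 present during compound exposure; potency means the concentration at half of the fitted maximal effect; on the % scale 0 is the no-effect control and ±100 the full control effect; nearly all actives have a fitted effect of over 65% in size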
#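 Cells, 2000/well, grown 16–24 h in DMEM 10% FBS with 0.5 mg/ml G418, then compounds plus […] (300 uM addition stock), 30 min at 37C. cAMP read by HTRF (cAMP-d2 and anti-cAMP antibody-K in lysis buffer) after 30 min RT.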
# Sfp inh – Sfp phosphopantetheinyl transferase inhibition | Q9F4F7 | Biochemical Sfp PPTase activity, qHTS | Potency, µM, for inactives: max response, negative = inhibition, usual class: inhibitors | 3.5% of 310,000 active; active means well fitted inhibition curve with a large enough effect; inconclusive means small, poorly fitted or top-dose-only effect, or another doubt; inactive means no such curve, though single readings can be large or run the other way;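 further: the enzyme is Sfp with the accession as filed and its product quenches rhodamine fluorescence; potency means the concentration at half of the fitted maximal effect; 0% = enzyme reaction without inhibitor and -100% = no enzyme wells; top concentration of the series not given in the record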
#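 Fluorescence-quenching assay: 15 nM Sfp-PPTase preincubated 15 min at room temperature with compound, then 5 uM rhodamine-CoA and 12.5 uM BHQ-2-labelled YbbR peptide added. Fluorescence (ex 525/em 598 nm) read at start and after 30 min; difference gives rate.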
# TRPV1 potentiator – human TRPV1 potentiation | TRPV1-expressing cells, Fluo-8 calcium influx, capsaicin EC20 potentiation; host cell line not named in the record; control for the full effect not named in the record | potentiation, % at 8.33 µM | Q8NER1 | AID 540277 | 0.02% of 320,000 active; active means potentiation above 80%; inconclusive means 30% to 80%; inactive means below 30%; further: 0% is about no effect
# Target sequence (Q8NER1 whole entry, looked up): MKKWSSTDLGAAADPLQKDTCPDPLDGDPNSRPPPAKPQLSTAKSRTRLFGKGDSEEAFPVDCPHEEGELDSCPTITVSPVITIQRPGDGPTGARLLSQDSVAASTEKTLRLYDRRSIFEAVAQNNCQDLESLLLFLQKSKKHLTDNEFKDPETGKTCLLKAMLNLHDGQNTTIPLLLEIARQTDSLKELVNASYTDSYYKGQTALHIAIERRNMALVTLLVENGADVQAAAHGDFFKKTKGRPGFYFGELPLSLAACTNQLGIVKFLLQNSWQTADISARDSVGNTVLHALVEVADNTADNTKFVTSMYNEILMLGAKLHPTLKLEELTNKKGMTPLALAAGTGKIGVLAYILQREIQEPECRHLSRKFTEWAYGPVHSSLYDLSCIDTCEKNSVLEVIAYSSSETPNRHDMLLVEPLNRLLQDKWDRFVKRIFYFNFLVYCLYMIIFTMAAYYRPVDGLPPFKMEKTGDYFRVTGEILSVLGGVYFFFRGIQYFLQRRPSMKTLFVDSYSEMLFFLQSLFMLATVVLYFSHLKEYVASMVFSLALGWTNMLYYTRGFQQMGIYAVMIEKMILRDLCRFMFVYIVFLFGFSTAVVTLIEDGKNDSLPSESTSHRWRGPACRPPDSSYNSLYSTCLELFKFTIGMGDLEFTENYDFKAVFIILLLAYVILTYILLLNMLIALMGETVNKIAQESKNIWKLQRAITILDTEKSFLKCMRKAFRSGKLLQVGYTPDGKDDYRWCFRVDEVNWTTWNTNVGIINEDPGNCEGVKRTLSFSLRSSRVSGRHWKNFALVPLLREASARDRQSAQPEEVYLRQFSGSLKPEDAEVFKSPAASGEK
#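 Cells expressing TRPV1 were dye-loaded with Fluo-8 and read kinetically: 10 s baseline, 3 min after compound (agonist portion), then 2 min after EC20 capsaicin (allosteric enhancer portion). Calcium-bound dye fluorescence at 480/520 nm.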
# gsp agonist – gsp mutant agonism; gsp mutant cells, cAMP HTRF, 30 min; control for the full effect not named in the record; Potency, µM (highest dose often 76.9 µM), for the others: at the highest dose activation (cAMP increase), usual class: activators; 0.13% of 340,000 active; active = well fitted activation curve with a large enough effect; inconclusive = small, poorly fitted or top-dose-only effect, or another doubt; inactive = no such curve, though single readings can be large or run the other way; cell line not stated here;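 further: phosphodiesterase inhibitor Ro 20-1724 added with compounds to block cAMP breakdown; potency means the concentration at half of the fitted maximal effect; nearly all actives have a fitted effect of over 60% in size; about a fifth of the inactives were tested at one dose only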
#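 Cells in DMEM/10% FBS with G418 were pretreated with compounds in DMSO plus […] (300 uM stock) for 30 min at 37C. cAMP was measured by HTRF (cAMP-d2 plus anti-cAMP antibody-K) after 30 min at room temperature.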
# Menin MLL FP FL – menin-MLL binding inhibition, fluorescein peptide; FP activity change, % at 61.4 µM; AID 1766; Fluorescence polarization, fluorescein-MLL peptide displacement from menin; 290,000 tested, under 10 active; inconclusive = falling polarisation curve, or a change in total fluorescence; inactive = total fluorescence flat and polarisation flat or rising; no compound was filed as active; the % refers to the polarisation; negative = inhibition;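 further: % of control where 0% means no effect; inhibitors lower the polarisation; unlabelled MLL peptide was the positive control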
# ClpP mod – qHTS Assay for Activators of ClpP | Potency, µM (highest dose often 57.5 µM), for inactives: top-dose activity change, negative = active | AID 651965, 2013 | purified B. subtilis ClpP, FRET peptide cleavage, 20 min | 1.9% of 340,000 active; active = well fitted falling curve with a large enough effect; inconclusive = small, poorly fitted or top-dose-only effect; inactive = no such curve, though single readings can be large or run the other way; further: potency means the concentration at half of the fitted maximal effect; the source files actives as falling curves though it sought activators and does not explain the sign; nearly all actives have a fitted effect of over 65% in size; many hits overshoot -100%
# Target sequence (P80244 whole entry, looked up): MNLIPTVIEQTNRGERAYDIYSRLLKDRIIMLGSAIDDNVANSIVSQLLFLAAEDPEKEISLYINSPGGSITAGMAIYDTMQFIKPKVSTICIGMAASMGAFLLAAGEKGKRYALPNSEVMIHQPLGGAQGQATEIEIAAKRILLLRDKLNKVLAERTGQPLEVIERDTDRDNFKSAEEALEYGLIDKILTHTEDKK
#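 Purified B. subtilis ClpP, 10 microg/mL final in Tris/HCl pH8 with KCl, BSA, glycerol and Tween-20, cleaved an Abz/nitrotyrosine-quenched decapeptide. Fluorescence (ex 320, em 430) was read at 0 and 20 min at room temperature. Delta was normalized to 5.8 microM ADEP and DMSO/no-enzyme controls.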
# TRPML1 inh – blocks the human TRPML1 channel | AID 624415 | activity change, negative = inhibition, % (test concentration not listed) | 0.02% of 390,000 active | TRPML1-inducible cells, Ca2+ dye fluorescence, FDSS; active compounds read low; inhibition of EC80 agonist-evoked calcium signal; in the data active means activity change below about -50%; inconclusive means about -30% to -50%; inactive means above about -30%;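 further: stimulus is agonist 54-4 at its EC80 concentration; on the % scale 0 is the no-effect control and ±100 the full control effect; compound concentration not given in the record; the text of the record puts the active cut at -80%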
#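 Tet-induced TRPML1-DL cells loaded with Ca8 no-wash calcium dye were read kinetically on FDSS. Compound addition was followed by EC80 agonist 54-4 (4 uM final); inhibition was read over 110 s.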
# * hit, by the source's call; ? = inconclusive; / = not tested or not shown; & = joins results of further samples; [ ] = dose if it differs, or a comment.
# Every second line gives: gsp antagonist	Sfp inh	TRPV1 potentiator	gsp agonist	Menin MLL FP FL	ClpP mod	TRPML1 inh
> O=S(=O)(Nc1ccc2c(c1)nc1n2CCN(Cc2ccccc2)C1)c1ccc(Cl)cc1
 : -18%	2%	-3	13%	4.1	-18%	-2
> Cc1cccc(C(=O)Nc2sc3c(c2C(=O)O)CCCC3)c1
 : ?	1%	9	-19%	-5.2	-5.6%	6&9
> O=C(/C=C/c1ccccc1)C1=C(O)C(=O)N(CCO)C1c1cccc([N+](=O)[O-])c1 (stereo not given)
 : -6%	19%	9	3%[15.4 µM]	3.6	/	1
> Cc1ccc(C)c2[nH]c(=O)c(CN(CCCN(C)C)C(=O)NCc3ccccc3)cc12
 : 10%	-3%	-23	-1%	5.2	3.5µM*	0
> CCOC(=O)/C(=N\Nc1cccc(C(F)(F)F)c1)N(CCOC)CCOC
 : -11%	7%	-17	-17%	-0.5	0.8%	2
> COc1ccc(C(=O)CCC(=O)O)c(C)c1
 : 13%	24%	7	?	-2.9	-0.1%	-7
> Cn1c(N)c(N2CCCCC2)c(=O)n(CC(=O)Nc2cccc(C#N)c2)c1=O
 : 15%	/	/	16%[15.4 µM]	/	-0.2%	17
> CC[C@@]1(C(=O)OC)N[C@H](CN(C)C(C)=O)[C@@H]2C(=O)N(Cc3ccccc3)C(=O)[C@@H]21
 : 10%	/	/	/	/	-0.4%	-16
> COc1ccccc1CC(NC(C)=O)C(=O)NC1CCN(C(=O)Nc2ccccc2C)CC1 (stereo not given)
 : 6%	7%	-2	18%	/	-0.1%	-2
> O=C(OCc1cccc([N+](=O)[O-])c1)c1cc(=O)[nH]c2ccccc12
 : /	11%	4	/	-0.6	/	/
> CCOC(=O)c1cc(NC(=O)NC2CCCCC2)c(C)nc1C
 : 7%	0%	-16	-3%[15.4 µM]	-3.9	0.0%	1
> C=CC[C@@H](CC(=O)N(CCO)Cc1ccccc1)C(=O)N[C@H](COC(=O)[C@@H](CC=C)CC(=O)OC(C)(C)C)Cc1ccccc1
 : ?	/	/	/	/	4.0%	-4
> CCOC(=O)c1c(NC(=O)CN2C(=O)C(=O)N(CC(C)C)C2=O)sc(C)c1CC
 : ?	/	-1	-52%[inhibitor]	/	-4.8%	13
> CC1CCCCN1CCn1cnc2c([nH]c3ccccc32)c1=O (stereo not given)
 : 8%	4%	0	-1%	-2.9	4.7%	13
> O=C(Nc1ccccc1)c1nccn1Cc1ccc(F)cc1
 : -5%	6%	27	-45%[inhibitor]	-0.1	-3.2%	11
> Cc1ccccc1OCC(=O)OCC(=O)NCc1cccs1
 : 12%	2%	-23	-14%	2.3	1.1%	3
> CN(C)Cc1c(C(=O)N/N=C/c2cccc(OCc3ccccc3)c2)nnn1-c1nonc1N
 : 50µM*	8%	-5	-43%[inhibitor]	0.5	1.1%	5
> Nc1ncnc2c1ncn2C1CCCC(CO)O1 (stereo not given)
 : 7%	/	/	?	/	/	8
> S=C(NCCc1ccccc1)N1CCC2CC1c1c(Cl)cccc12 (stereo not given)
 : /	/	/	-1%	/	0.9%	-6
> CN1/C(=C/C(=S)NC(=O)C2CCC2)C(C)(C)c2ccccc21
 : -8%	?	-8	-1%[15.4 µM]	4.9	0.0%	-9
> CCCCCn1c(C(C)NC(=O)CCC)nc2ccccc21 (stereo not given)
 : 2%	9%	-8	-72%[inhibitor]	-4.6	2.0%	3
> Cc1ccc(OCC(=O)NNC(=O)c2ccco2)c(C)c1
 : 9%	9%	6	?	-2.9	-3.4%	-8
> COc1ccc(NS(=O)(=O)c2ccc(NC(C)=O)cc2)cc1OC
 : -21%	-2%	-6	1%	2.6	0.0%	-8
> COc1cc2nc(CN3C(=O)c4ccccc4C3=O)oc(=O)c2cc1OC
 : -5%	5%	2	-47%[inhibitor]	0.6	-1.7%	-7
> CCCn1c(N)c(N(CCOC)C(=O)CSc2cc(C)c3ccccc3n2)c(=O)[nH]c1=O
 : 8%	/	/	21%[15.4 µM]	/	/	15
> O=C(Nc1cccc(Cl)c1)Nc1nnc(CC2=CCCCC2)s1
 : 3%	-1%	8	-54%[inhibitor]	12	-0.2%	49
> C=C[C@@H]1c2c(F)cccc2N(S(=O)(=O)c2ccc(C)cc2)[C@H](c2ccc(C(=O)OC)cc2)C1(C#N)C#N
 : -1%	/	1	/	/	-2.1%&-3.4%	15
> O=C(CSc1ccc2nnc(-c3ccccn3)n2n1)Nc1ccc2c(c1)OCO2
 : -8%	14%	11	?	1.3	-0.4%	-4
> COc1ccccc1CNS(=O)(=O)c1cc2c3c(c1)CCC(=O)N3CCC2
 : -8%	/	-4	4%[15.4 µM]	/	/	-4
> CC(=O)c1ccc(N2CCN(S(=O)(=O)c3cn(C)cn3)CC2)cc1
 : 1%	0%	-1	?	-4.0	-18%	40
> COc1ccccc1-n1cnnc1SCC(=O)Nc1cccc(S(=O)(=O)N2CCCCC2)c1
 : /	0%	19	/	2.7	/	/
> Cc1cccc(-c2noc(Cc3ccccc3)n2)c1
 : -1%	8%	3	1%	3.5	-2.5%	-9
> Cc1ccc(Nc2c(-c3ccccn3)nc3cccc(C)n23)cc1
 : ?	8%	4	-2%	-0.6	-5.0%	/
> COc1cc(C(=O)NCC(=O)N/N=C(/C)c2cccs2)cc(OC)c1OC
 : -5%	21%	15	?	1.0	0.8%	13
> CCN1CCN(C(=O)c2cc(COc3ccc(C(C)=O)cc3OC)on2)CC1
 : 8%	24%	-2	?	-6.3	/	1
> CC(=O)N/C(=C\c1ccccc1)C(=O)OCC(=O)Nc1ccc(C)c(S(=O)(=O)N(C)C)c1
 : -25%	/	/	-22%	/	-0.3%	-3
> COc1ccc(S(=O)(=O)N2CCN(c3ccccc3F)CC2)cc1-c1noc(C)n1
 : /	/	24	/	/	77%	-17
> COc1cc(/C=C2\SC(=S)N(NS(=O)(=O)c3ccc(C)cc3)C2=O)cc(OC)c1OC
 : -11%	-3%	29	-27%	4.8	/	3
> NS(=O)(=O)c1cccc(NC(=O)COC(=O)/C=C/c2ccco2)c1
 : 3%	-14%	?	3%[15.4 µM]	2.8	/	-10
> CCc1ccccc1NC(=O)c1ccc([N+](=O)[O-])s1
 : /	21%	27	14%[15.4 µM]	-7.0	/	18
> CC(C)NC(=O)N(C)C[C@H]1Oc2ccc(NC(=O)Nc3ccccc3)cc2C(=O)N([C@@H](C)CO)C[C@@H]1C
 : 10%	/	/	?	/	1.2%	0
> O=C(NCc1ccc(F)cc1)Nc1ccccc1
 : 1%	13%	-2	?	1.8	-0.9%	15
> O=C(CSc1ccc(-c2ccc(F)cc2)nn1)NCC1CCCO1 (stereo not given)
 : -1%	5%	-5	?	-2.9	/	1
> CCc1ccc(C2C(C#N)=C(N)N(N(C)C)C3=C2C(=O)CCC3)s1 (stereo not given)
 : -2%	?	15	19%	12	0.4%	-11
> O=C(/C=C/c1ccc(Cl)cc1)c1ccc([N+](=O)[O-])o1
 : -3%	/	9	/	/	-0.4%	-9
> CC(C)CCN1CCN(Cc2cccc3cccnc23)CC1CCO (stereo not given)
 : /	3%	-22	9%[15.4 µM]	1.5	/	-2
> O=C(CSc1n[nH]c(-c2ccco2)n1)Nc1ccc(F)cc1
 : -12%	3%	13	0%[15.4 µM]	-2.3	/	-13
> CCNC(=O)CP(=O)(c1ccccc1)c1ccccc1
 : -9%	14%	3	-105%[inhibitor]	2.4	-0.3%	11
> CC(=O)Nc1ccc(NC(=O)c2c(C)nn(Cc3ccccc3Cl)c2C)cc1
 : -1%	16%	20	?	0.1	/	21
> CC(C)(C)OC(=O)NCCc1nnc(SCC(=O)c2ccc(Cl)cc2)o1
 : ?	-37%	-15	1%	5.0	-0.2%	8

# Further compounds.
# Every second line gives: gsp antagonist	Sfp inh	TRPV1 potentiator	gsp agonist	Menin MLL FP FL	ClpP mod	TRPML1 inh
> COc1cccc(CNc2ncnc3ccc(-c4c(C)noc4C)cc23)c1
 : /	-12%	6	/	-3.4	/	/
> N#Cc1c(N)sc(=S)c2c1CCCC2
 : 1%	32µM*	16	?	?	0.2%	7
> Nc1ncc(Br)cc1S(=O)(=O)NCCC(=O)NCCc1ccccc1
 : 16%	16%	3	-1%	/	-16%	-9
> Cc1ccccc1NC(=O)N1CCCC(c2nc(-c3ccc(C(C)C)cc3)no2)C1 (stereo not given)
 : ?	12%	13	-1%	-0.5	-0.1%	29
> COc1ccc(CCNC(=O)c2cc(-c3cc(C)cc(C)c3O)n[nH]2)cc1OC
 : -34%	-5%	-3	-9%	0.2	-3.3%	9
> CN1CCN(c2ccc([N+](=O)[O-])cc2S(=O)(=O)N2CCOCC2)CC1
 : 3%	6%	2	19%	-2.6	2.4%	21
> CCOC(=O)C1(Cc2ccc(Cl)cc2)CCN(C(=O)c2cc(C)nc(C)n2)CC1
 : -2%	16%	8	4%[15.4 µM]	-0.1	/	5
> CCN(CC)CCCNC(=S)N(Cc1cccnc1)Cc1cc2cc(C)ccc2[nH]c1=O
 : 6%	5%	5	5%	-1.3	-23%	-27
> O=C(Nc1ccc(NC(=S)NC(=O)c2ccco2)cc1)c1ccccc1
 : 2%	-1%	-2	4%	-5.7	/	8
> Cc1ccc(N2N=C(C(=O)O)CCC2=O)cc1Cl
 : 14%	15%	3	-1%	0.1	1.5%	5
> Cc1ccc(C(=O)Nc2cc3ccccc3oc2=O)cc1
 : 15%	-3%	-4	-22%	0.0	/	-1
> COC(=O)[C@@]1(Cc2ccccc2)[C@H]2C(=O)N(Cc3ccccc3)C(=O)[C@H]2[C@H]2CN=C(SCc3ccc(Cl)cc3)N21
 : -2%	/	/	/	/	-0.5%	25
> Cc1cc(SCC(=O)c2ccccc2)n2nc(C)nc2n1
 : 4%	-15%	-10	-4%	14	-3.1%	35
> COc1ccc(C(=O)NCc2cccnc2)cc1OC
 : 0%	-2%	-15	-6%	2.6	-1.1%	6
> O=C(Nc1ccc(OCC(=O)N2CCOCC2)cc1)Nc1cccc2ccccc12
 : -9%	2%	1	-6%[15.4 µM]	-4.7	-0.1%	6
> C/C(=N\NC(=O)c1ccc([N+](=O)[O-])cc1Cl)c1ccccc1
 : -8%	13%	-4	?	0.2	-1.0%	12
